# Assay outcomes deposited in PubChem by ICCB-Longwood Screening Facility, Harvard Medical School.
# HCMV NEC inh: inhibitors of HCMV UL50-UL53 interaction, biochemical, HTRF | normalized percent inhibition | inhibition, % (no concentration beside the values) | actives 0.15% (n = 190,000) | AID 1918969, 2023;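 active means both replicates at 50% or more, plus weaker picks with an unusually low signal ratio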;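 further: stock transfer was 100 nL into about 20 µL; 0% = negative control wells and 100% = wells with untagged competitor protein; inactives centre near -12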
# Sa growth 42C: S. aureus growth inhibition at 42 and 30 °C, primary screen, LtaS inhibitor project, RN4220, two temperatures; OD600, 20 h, 42 °C; active compounds read low; relative growth, % (no concentration beside the values); actives 0.53% (n = 170,000); AID 720641, 2013;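 active means growth at 42 °C up to 50% and 20 or more points under that at 30 °C, or under 10% at both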;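 further: 300 nL library stock went into each well; scaled to the means of positive and negative controls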
# GIV-Gai inh: inhibitors of GIV peptide binding to Galpha-i3, primary screen, biochemical, fluorescence polarization, FITC-GIV GBA peptide, rat Galphai3; Guanine nucleotide-binding protein G(i) subunit alpha-3 (Rattus norvegicus), P08753; 90 min; active compounds read low; scaled: aluminum fluoride 0%, vehicle 100%; percent of control (FP), % (concentration not given with the values); actives 0.42% (n = 210,000); AID 1224905, 2016;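 active means replicate mean at 85% of control or lower, very high polarization wells dropped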;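 further: wells of about 15 µL received 100 nL stock; the first replicate is given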
# Target sequence (P08753 whole entry, looked up): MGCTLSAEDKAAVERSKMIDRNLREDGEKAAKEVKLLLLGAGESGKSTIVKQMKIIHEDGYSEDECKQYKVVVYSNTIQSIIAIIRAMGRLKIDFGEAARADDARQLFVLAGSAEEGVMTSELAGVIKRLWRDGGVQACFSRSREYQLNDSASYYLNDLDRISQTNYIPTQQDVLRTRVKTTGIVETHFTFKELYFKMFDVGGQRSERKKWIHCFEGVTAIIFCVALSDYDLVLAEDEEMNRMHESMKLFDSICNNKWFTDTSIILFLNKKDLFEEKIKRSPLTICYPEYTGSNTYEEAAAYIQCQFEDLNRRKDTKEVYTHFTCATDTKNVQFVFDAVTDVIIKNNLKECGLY
# Sa growth 42C second temp: also measured in Sa growth 42C; calls as there; relative growth, %; measured here: growth at 30 °C;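 optical density after 20 h as mean of two plates; 100% = untreated growth and lower means inhibition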
# An asterisk follows results filed as active; . = not tested or not shown; & = joins results of further samples.
SMILES,HCMV NEC inh,Sa growth 42C,Sa growth 42C second temp,GIV-Gai inh
CCc1nn2c(=O)cc(COC(=O)C(c3ccccc3)c3ccccc3)nc2s1,.,101,66,103
O=c1oc2c(ccc3c(O)cccc32)c2c1CCCC2,-8,76,96,118
NC(=O)Cn1cnc(-c2ccc(F)cc2)c1,-19,103,87,97
CCc1ccc(NC(=O)COc2cnc3ccccc3n2)cc1,-42,106,79,.
COCCN1CCN(C2CCN(C(=O)Nc3ccc(C)cc3)CC2)C(=O)C1=O,-7,.,.,107
O=C(Nc1ccc(-c2nc3cccnc3s2)cc1)c1ccccc1,.,92,82,107
CC1(N(O)/C=C2/C=CC=N2)CCCCC1=O (stereo unspecified),-6,97,122,102
Cc1ccccc1OCC(O)Cn1c(NCc2ccccc2)nc2c1c(=O)n(C)c(=O)n2C (stereo unspecified),17,.,.,106
O=C(CN1C(=O)CSC1=O)Nc1nccs1,-6,91,91,.
CN1CCCN(CC(O)COCc2cccs2)CC1 (stereo unspecified),-9,95,93,.
O=C(O)c1ccc(C2CCCCC2)cc1,-8,102,103,.
COc1ccc(SCC(O)CNCc2ccc(Cl)cc2)cc1 (stereo unspecified),1,112,93,107
Cc1csc(SCc2cc(=O)c(OC(=O)c3ccco3)co2)n1,-25,96,78,96
CCOc1cc(CNc2ccc(OC)cc2)ccc1OCC(=O)NC(C)(C)C,.,101,89,96
CCCNC(=O)c1cnn2c1NC(c1cccc(OC)c1)CC2C(F)(F)F (stereo unspecified),-12,102,84,103
O=C1CC2(CCCC2)C(=O)N1c1ccc(S(=O)(=O)N2CCc3ccccc3C2)cc1Cl,-20,88,88,101
CCC1Oc2cc(S(=O)(=O)N3CCCC(C(=O)NC4CC4)C3)c(C)cc2NC1=O (stereo unspecified),-21,.,.,99
CCC(C)C(NC(N)=O)C(=O)NC1CCC(C)CC1 (stereo unspecified),-33,100,97,.
CN(C)/N=C/c1ccc(N2CCOCC2)cc1,-30,104,90,.
CCc1cccc(N2C(=O)CSC23C(=O)Nc2ccccc23)c1 (stereo unspecified),.,102,88,103

# Shown with values under each structure: 18 of the compounds above
# Screens in order – HCMV NEC inh, Sa growth 42C, Sa growth 42C second temp, GIV-Gai inh
> CCc1nn2c(=O)cc(COC(=O)C(c3ccccc3)c3ccccc3)nc2s1
  ., 101, 66, 103
> O=c1oc2c(ccc3c(O)cccc32)c2c1CCCC2
  -8, 76, 96, 118
> NC(=O)Cn1cnc(-c2ccc(F)cc2)c1
  -19, 103, 87, 97
> CCc1ccc(NC(=O)COc2cnc3ccccc3n2)cc1
  -42, 106, 79, .
> COCCN1CCN(C2CCN(C(=O)Nc3ccc(C)cc3)CC2)C(=O)C1=O
  -7, ., ., 107
> O=C(Nc1ccc(-c2nc3cccnc3s2)cc1)c1ccccc1
  ., 92, 82, 107
> CC1(N(O)/C=C2/C=CC=N2)CCCCC1=O (stereo unspecified)
  -6, 97, 122, 102
> Cc1ccccc1OCC(O)Cn1c(NCc2ccccc2)nc2c1c(=O)n(C)c(=O)n2C (stereo unspecified)
  17, ., ., 106
> O=C(CN1C(=O)CSC1=O)Nc1nccs1
  -6, 91, 91, .
> CN1CCCN(CC(O)COCc2cccs2)CC1 (stereo unspecified)
  -9, 95, 93, .
> O=C(O)c1ccc(C2CCCCC2)cc1
  -8, 102, 103, .
> COc1ccc(SCC(O)CNCc2ccc(Cl)cc2)cc1 (stereo unspecified)
  1, 112, 93, 107
> Cc1csc(SCc2cc(=O)c(OC(=O)c3ccco3)co2)n1
  -25, 96, 78, 96
> CCOc1cc(CNc2ccc(OC)cc2)ccc1OCC(=O)NC(C)(C)C
  ., 101, 89, 96
> CCCNC(=O)c1cnn2c1NC(c1cccc(OC)c1)CC2C(F)(F)F (stereo unspecified)
  -12, 102, 84, 103
> O=C1CC2(CCCC2)C(=O)N1c1ccc(S(=O)(=O)N2CCc3ccccc3C2)cc1Cl
  -20, 88, 88, 101
> CCC1Oc2cc(S(=O)(=O)N3CCCC(C(=O)NC4CC4)C3)c(C)cc2NC1=O (stereo unspecified)
  -21, ., ., 99
> CCC(C)C(NC(N)=O)C(=O)NC1CCC(C)CC1 (stereo unspecified)
  -33, 100, 97, .

# Going on with the list.
SMILES,HCMV NEC inh,Sa growth 42C,Sa growth 42C second temp,GIV-Gai inh
O=C(COc1ccc(F)c(Cl)c1)n1cccn1,-12,126,102,114
Cc1cc(C)cc(C(=O)Nc2cc(C)nn2-c2nc(C)cc(=O)[nH]2)c1,-22,.,.,98
NC(=O)C1CCN(Cc2cc(=O)oc3cc(O)ccc23)CC1,-48,91,94,.
CCn1cc(C(=O)N(C)c2cc(C)ccc2C)c2cc(OC)c(OC)cc2c1=O,24,89,96,104
CCOC(=O)N1CCC(NC(=O)c2cnn(-c3ccccc3)c2C2CCN(C(=O)OC(C)(C)C)CC2)CC1,.,97,96,108
CC(=O)Nc1ccc(NC(=O)C(C)OC(=O)C2CC2)cc1 (stereo unspecified),-23,122,77,.
CCOC(=O)Cn1c(Sc2nc3c(c(=O)n(C)c(=O)n3C)n2C)nc2ccccc21,-28,.,.,110
CSCCC(NS(=O)(=O)c1ccc2c(c1)oc(=O)n2C)C(=O)N1CCN(c2ccc(F)cc2)CC1 (stereo unspecified),.,106,86,99
CCCOc1ccc(NC(=O)C(=O)NCCCN2CCOCC2)cc1,-10,106,81,106
N#Cc1ccccc1Cn1c(=O)n(Cc2ccccc2)c(=O)c2ccccc21,.,100,88,109
Nc1nc(SCC(=O)OC2CCCC2)n[nH]1,-36,99,98,102
CCOC(=O)c1sc2nc(-c3cccc(OC)c3)c(NC3CCCCC3)n2c1C,-21,.,.,104
Cc1cc(SCCOc2ccc(Cl)cc2Cl)nc(N)n1,-8,56,66,.
O=C(Cn1nnc2ccccc21)OCc1ccccc1,-18,96,89,.
CCC1CN(S(=O)(=O)c2cc(-c3onc(C)c3C)ccc2OC)c2cc(Cl)ccc2O1 (stereo unspecified),-4,90,92,102
Cc1noc(C)c1S(=O)(=O)N(C)c1ccc(Br)cc1,-17&-33,100,91,98&101
O=C(CSc1nnc(-c2ccccc2)o1)N(CC1CCCO1)c1nc2ccccc2s1 (stereo unspecified),-7,101,93,.
CN(C)S(=O)(=O)c1ccc(C(=O)OCC(=O)N2CCCCC2)cc1,16,104,93,.
COc1ccc(N2CC(NC(=O)/C=C\c3ccccc3)CC2=O)cc1 (stereo unspecified),.,74,95,98
CCN(C(=O)C1CCCN(S(=O)(=O)c2c(C)noc2/C=C/c2ccc(C)cc2)C1)c1ccccc1 (stereo unspecified),-11,.,.,96
CCCc1cc(=O)[nH]c(SCC(=O)N2c3ccccc3NC(=O)C2(C)C)n1,-6,91,96,.
N#CCSc1nc2ccccc2c(=O)n1CCC(=O)NC1CCCCC1,.,91,87,101
CCN1CCN(Cc2ccc(NC(=O)Cc3nc(-c4ccc(OC)cc4)no3)cc2)CC1,-30,99,96,100
CCc1ccc(N2C(=O)CSC23C(=O)N(Cc2cccc(F)c2)c2ccccc23)cc1 (stereo unspecified),.,129,96,105
CC(NC(=O)CN1C(=O)COc2ccc(Cl)cc21)c1ccccc1 (stereo unspecified),-1,105,102,116
N#C/C(=C/c1cn(CCC(N)=O)c2ccccc12)c1ccc(C#N)cc1,-34,125,92,109
COc1cc(OC)c(NC(=O)NCc2ccc3c(c2)CCN3C(=O)c2ccccc2)cc1Cl,.,105,98,100
C=C(C)C(C)(C#CCN1CCCC1)OC(C)=O (stereo unspecified),-7,101,108,107
CCOC(=O)c1cc(C#N)c(N2CCN(S(=O)(=O)c3ccccc3)CC2)nc1C(F)(F)F,-12,94,90,103
CCOc1ccc(-n2c(SCC(=O)N3CCC(C)CC3)nc3n[nH]c(C)c3c2=N)cc1,-13,107,92,105
Cc1cc(C)c(NC(=O)CSc2nc(=O)[nH]c3c2CCCC3)c(C)c1,.,117,88,99
COc1ccc(NC(=O)CSc2nnc3c(C)cc4ccccc4n23)cc1,.,119,90,100
O=C(NC1CCCC1)C(c1ccccc1)N(Cc1cccs1)C(=O)Cn1nnc2ccccc21 (stereo unspecified),-8,106,100,100
CC(=O)N1CCN(CC(O)COc2ccc3oc4ccccc4c3c2)CC1 (stereo unspecified),-10,92,92,.
C=C(C)CSc1nc2sc3c(c2c(=O)n1-c1ccccc1)CC(C(C)C)OC3 (stereo unspecified),-22,110,90,104
COC(=O)c1c(NC(=O)c2cc3nc(-c4ccc(OC)cc4)cc(C(F)(F)F)n3n2)sc2c1CCCC2,.,103,81,104
Cc1cc(C)nc(NC(=NCc2ccc(Cl)cc2)NC(=O)C(C)N2C(=O)c3ccccc3C2=O)n1 (stereo unspecified),.,93,96,103
CCOc1cc(C2CC(=O)Nc3c2c(=O)n(C)c(=O)n3C)ccc1O (stereo unspecified),-24,.,.,99
COCCCNc1nc2ccccc2n(CC(=O)N2CCCCCC2)c1=O,-4,106,89,.
CCc1ccccc1OCC(=O)O,-21,122,89,.
CC(C)c1ccc(NC(=O)CSC2=Nc3ccccc3C3=NC(CC(=O)N4CCN(c5ccccc5)CC4)C(=O)N23)cc1 (stereo unspecified),-17,85,89,97
O=c1[nH]c(-c2ccccc2)nn1-c1ccc(Br)cc1Br,-17,101,84,102
CCn1cnc(S(=O)(=O)N2CCCC(C(=O)Nc3cc(C)on3)C2)c1 (stereo unspecified),8,.,.,106
CCCCn1cc(C2CC(=O)N(c3ccc(Br)cc3)C2=O)c2ccccc21 (stereo unspecified),-6,101,85,132&120
COc1ccc(CCNC(=O)CSc2nc3ccccc3o2)cc1,-13,84,89,.
O=C(NC1CCN(Cc2ccccc2)CC1)[C@H](Cc1ccccc1)N1Cc2ccccc2C1=O,.,98,90,111
CCOC(=O)CSc1nnc(Cn2nnc3ccccc32)n1-c1ccc(F)cc1,21,100,88,105
Cc1ccc2c(c1)sc1nc(C)c(S(=O)(=O)Nc3cc(F)ccc3C)c(=O)n12,-18,.,.,114
COc1ccc(N2CCN(C(=O)CCS(=O)(=O)c3ccc4nc(C)sc4c3)CC2)cc1,7,106,88,105&111
C=CCNC(=O)c1ccccc1NC(=O)c1ccc(OC)cc1,10,109,96,111
O=C(NN=C1CCCCCCC1)c1ccc(CN2CCOCC2)cc1,-16,91,90,98
COc1ccc(N2CCN(c3ccc(NS(=O)(=O)c4ccc(F)cc4)c(C(=O)O)c3)CC2)cc1,6,.,.,105
Cc1c(C(=O)NC(C)C)oc2ccc(S(=O)(=O)N3CCCC3)cc12,.,122,84,103
COC(=O)c1cc2sccc2n1Cc1nc(-c2ccccc2F)oc1C,-7,98,90,103
COc1ccc(-c2csc(Cc3nnc4n3CCCCC4)n2)cc1,-24,99,88,.
NC(=O)C1CC2CCC1CC2 (stereo unspecified),-7,112,86,105
CC(C)(C)C(=O)/C=c1\s/c(=C\c2ccc3c(c2)OCO3)c(=O)n1Cc1cc(=O)n2ccsc2n1,-37,91,93,.
CCOC(=O)C1CCN(C(=O)CCc2c(C)nc3c(-c4ccc(F)cc4)c(C)nn3c2C)CC1,14,.,.,99
Cn1nc(C(=O)N(Cc2cccs2)C2CCCC2)c2c1-c1ccccc1SC2,-14,92,70,103
Cc1ccc(-c2nnc(SC(F)F)c3ccccc23)cc1C,-27,.,.,100

# Next structures.
SMILES,HCMV NEC inh,Sa growth 42C,Sa growth 42C second temp,GIV-Gai inh
Cc1cc(NC(=O)CCC2CCCC2)nc2c1c(=O)oc1ccccc12,.,82,65,101
COc1cc2c(c(O)c1OC)CC(=O)CCC2,-26,101,85,.
Cc1cccc(C)c1NC(=O)Cn1nc(-c2ccc3c(c2)OCCO3)ccc1=O,-16,110,95,104
Cc1ccc(C)c(C(=O)N2CCN(c3nc4cccnc4o3)CC2)c1,-7,.,.,103
COCCN1Cc2cccc(C(=O)N3CCN(c4cccc(OC)c4)CC3)c2C1=O,-9,.,.,97
S=C(NCCCn1ccnc1)NCc1cccs1,-4,99,102,.
COc1cc(OC)c(C(=O)COc2ncnc3ccccc23)c(OC)c1,-23,72,83,.
CCC(C)NC(=O)Cc1csc(-c2ccccc2)n1 (stereo unspecified),-22,113,87,108
O=C(NCCc1cn2ccccc2n1)C1CCCCC1,-28,84,84,103
O=C(CC(c1ccccc1)c1ccccc1)Nc1ccccn1,-6,109,93,.
Cc1cc(C)nc(SCCn2c(N3CCCCC3)nc3c2c(=O)n(C)c(=O)n3C)n1,-20,.,.,104
Cc1cc(=O)oc2c(C)c(OC(=O)c3ccco3)ccc12,-2,105,104,102
CCn1nc(C)c2c1c(=O)n(Cc1ccccc1)c(=O)n2Cc1cccc(Cl)c1,-5,.,.,98
O=C(CNC(=O)C1CCCCC1)NCc1ccco1,-22,95,87,104
COc1cc(NC(=O)CCN2C(=O)c3ccccc3C2=O)c(OC)cc1Cl,-12,.,.,106
